Compound activity from PubChem BioAssay.
PKD1 inh: inhibitors of human PKD1 kinase | Q15139 | PKD1 kinase fluorescence polarization assay | inhibition, %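 (about 10 µM by stock and volumes)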 | 200,000 tested, 0.056% active | AID 797;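 active means inhibition of 50% or more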;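 further: controls were vehicle for no effect and a reference inhibitor for full effect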
Target sequence (Q15139 whole entry, looked up): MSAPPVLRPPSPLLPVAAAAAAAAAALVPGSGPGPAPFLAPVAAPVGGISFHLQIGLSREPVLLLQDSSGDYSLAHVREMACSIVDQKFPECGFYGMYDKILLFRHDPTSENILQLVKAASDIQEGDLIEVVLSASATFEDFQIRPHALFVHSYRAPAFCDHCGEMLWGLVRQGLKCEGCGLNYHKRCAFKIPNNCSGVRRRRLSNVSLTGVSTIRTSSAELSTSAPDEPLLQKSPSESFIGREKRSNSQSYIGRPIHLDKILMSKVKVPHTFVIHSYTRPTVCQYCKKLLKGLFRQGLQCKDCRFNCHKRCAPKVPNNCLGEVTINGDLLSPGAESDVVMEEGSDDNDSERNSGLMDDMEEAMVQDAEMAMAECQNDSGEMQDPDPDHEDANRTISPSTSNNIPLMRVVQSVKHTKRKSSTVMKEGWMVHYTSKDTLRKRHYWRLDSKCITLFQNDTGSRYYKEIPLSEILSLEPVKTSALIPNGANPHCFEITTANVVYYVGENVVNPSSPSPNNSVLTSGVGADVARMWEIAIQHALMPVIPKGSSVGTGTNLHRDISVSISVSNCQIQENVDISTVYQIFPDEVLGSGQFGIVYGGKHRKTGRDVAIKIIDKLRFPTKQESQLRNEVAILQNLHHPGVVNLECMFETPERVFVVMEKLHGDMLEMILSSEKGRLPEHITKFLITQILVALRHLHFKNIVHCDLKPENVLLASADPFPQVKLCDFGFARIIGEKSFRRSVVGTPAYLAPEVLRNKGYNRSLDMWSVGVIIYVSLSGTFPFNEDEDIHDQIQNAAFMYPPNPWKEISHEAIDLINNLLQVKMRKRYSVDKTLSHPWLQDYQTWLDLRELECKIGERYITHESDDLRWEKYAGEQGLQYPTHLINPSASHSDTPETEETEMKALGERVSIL
HSV replic up: HSV replication enhancement; maximum fold increase; AID 1956; HSV replication augmentation in cells, fold increase; 220,000 tested, 0.005% active;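 active means peak rise of 1.5-fold or more in the series; tested in PC3 cells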;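 further: first round at 10 µM; read as green reporter fluorescence; hits show the peak of a series up to 25 µM; 1 = signal of infected wells without compound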
GALR2 agonist: GALR2 (human) receptor agonism | O43603 | GALR2-expressing cells, agonist activation read-out | activation, %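 (tested at 5 µM)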 | 140,000 tested, 0.48% active;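 active means above mean plus 3 SD of all compounds, about 5% in these data, not always enough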;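 further: 0% = vehicle buffer wells and 100% = reference agonist at full effect; tested in CHO reporter cells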
Insulin prom inh: TRM-6 insulin promoter activity inhibition; TRM-6 cells (human fetal islet line), insulin promoter-eGFP reporter, imaging; reporter expression induced with tamoxifen; inhibition, % at 2 µM; 130,000 tested, 0.9% active; AID 1273;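 active means inhibition above the mean plus 3 SD, with well images judged a real hit on visual review, cut at about 60% in these data, passing the limit was not always enough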
RGS16-Gao: regulators of human RGS16-Galphao interaction; O15492+P09471; bead-based flow cytometry RGS16-Galphao binding, fluorescence; actives lie on both sides; binding response (% of control), % at 10 µM; 220,000 tested, 0.38% active; AID 1441;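 active means below 25% or above 175%, edge rows of some plates excepted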;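 further: Galphao activated by GDP with aluminum fluoride before binding; 100% = wells without compound and 0% = beads without RGS; some results beyond the cut were filed as inactive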
Insulin prom inh cell count: further read-out of Insulin prom inh, marked with its call; normalized cell count, %; measured here: cell count, toxicity; reference of the scale not given here;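 cells exposed to compound for 48 h; stained nuclei by imaging scaled within each plate; lower means fewer cells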
HSV replic up primary fold: also measured in HSV replic up; calls as there; fold increase; compound at 10 µM; measured here: primary screen fold increase 10 uM; tested in PC3 cells;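 GFP signal in the first replicate; 1 = infected wells without compound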
The depositor's hits bear a star; i = inactive; . = no result given. No enrichment for hits; about 1.3% have a hit in one of these screens.

Order of values – PKD1 inh	HSV replic up	HSV replic up primary fold	GALR2 agonist	Insulin prom inh	Insulin prom inh cell count	RGS16-Gao
- O=C(O)CSc1nnc(-c2ccccc2O)n1Cc1ccccc1
→ -10	i	0.95	0.3	40	72	101
- O=C(Nc1ccccc1-c1ccccc1)c1cnccn1
→ 15	i	0.79	-2.2	.	.	103
- O=C(c1cccs1)N1CCN(Cc2ccccn2)CC1
→ -8	i	0.91	.	-4	233	108
- Cn1c(=O)[nH]c(=O)c2c1nc(Br)n2C/C=N/NC(=O)c1ccccc1
→ .	i	0.96	.	.	.	101
- CCCS(=O)(=O)N1CCCC(C(=O)NCc2ccc(C)cc2)C1 (centres undefined)
→ -4	i	1.1	-3.8	.	.	100
- COc1cccc(NC(=O)CSc2nnnn2C(C)C)c1
→ -8	.	.	-4.2	66	100	107
- Cc1nc(-c2ccc(Cl)cc2)sc1C1(C)CC(c2ccc([N+](=O)[O-])cc2)=NO1 (centres undefined)
→ .	i	0.92	.	.	.	92
- COc1ccccc1C1C2C(=O)N(c3ccccc3)C(=O)C2ON1c1ccccc1 (centres undefined)
→ -2	i	0.9	-0.9	64	127	99
- O=C(Nc1ccnc(-c2cccnc2)n1)c1ccc(Cl)cc1
→ 0	i	1.1	-1.4	-13	132	101
- O=C(Nc1nc(-c2cccnc2)cs1)c1ccc([N+](=O)[O-])cc1
→ .	i	0.95	.	.	.	101
- CC1CN(Cc2nnc(-c3ccccc3)o2)CC(C)O1 (centres undefined)
→ -7	i	0.97	.	.	.	103
- c1cnn(-c2cncc(-n3cccn3)n2)c1
→ -1	i	1.1	.	.	.	102
- CN1CCN(CC(O)COCCOc2ccc(Br)cc2)CC1 (centres undefined)
→ -9	i	0.93	0.3	5	114	105
- COCCn1c(N)c(C#N)c2nc3ccccc3nc21
→ 2	i	0.93	3.2	-31	98	105
- CC(C)(C)NCCCCOc1ccc(F)cc1
→ 21	i	0.96	-0.8	13	138	156
- Cc1noc(C)c1S(=O)(=O)Nc1ccc(C(=O)NC2CCCCC2C)cc1 (centres undefined)
→ -2	i	0.97	-0.2	.	.	88
- COc1ccc(OC)c(NC(=O)Cn2cc(C#N)c3ccccc32)c1
→ 1	i	0.83	-2.8	-92	88	105
- CCOC(=O)C1CCCN(C(=O)c2cccc(S(=O)(=O)N3CC(C)OC(C)C3)c2)C1 (centres undefined)
→ .	i	0.96	.	.	.	99
- COc1cc(C2C(C(C)=O)=C(O)C(=O)N2CCc2c[nH]c3ccccc23)ccc1O (centres undefined)
→ 1	i	0.82	-1.2	.	.	103
- NC(=NCc1ccc2c(c1)OCO2)NC(=O)c1ccccc1
→ -3	i	1	.	.	.	124
- Cc1cc(C)n(/N=C/c2c[nH]c3ccccc23)c(=O)c1
→ -5	i	1.1	-3.7	33	102	111
- O=C(Nc1ccccc1F)c1ccc(CSc2ccccc2)o1
→ -5	i	1.1	-0.1	.	.	102
- CNc1ccc(C2(O)C(=O)c3ccccc3C2=O)cc1
→ -14	i	0.94	0.2	-202	110	99
- CN(C)S(=O)(=O)c1ccc2c(c1)nc1n2CCC1
→ 3	i	0.91	0.8	9	107	84
- Nc1nc(Cl)cc(Nc2ccccc2Cl)n1
→ .	i	0.92	.	.	.	101
- CCCCN(CC)C(=O)c1ccc(Cl)cc1
→ -6	i	0.86	.	.	.	104
- Cc1ccc(S(=O)(=O)N2CCN(C(=O)N3CCOCC3)C2C)cc1 (centres undefined)
→ -8	i	0.86	-4.1	50	100	102
- COCCCNc1ncnc2ccc(C)cc12
→ -4	i	1.1	-3.0	57	108	109
- COn1c(SCc2ccc(Cl)cc2)nc2ccccc2c1=O
→ -2	i	0.92	-0.3	-77	237	105
- CCOC(=O)c1cnc2cc(C)nn2c1-c1ccccc1
→ -5	i	0.9	-1.5	-3	91	80

The final four compounds of the section before lead into the next.
Order of values – PKD1 inh	HSV replic up	HSV replic up primary fold	GALR2 agonist	Insulin prom inh	Insulin prom inh cell count	RGS16-Gao
- Cc1ccc(S(=O)(=O)N2CCN(C(=O)N3CCOCC3)C2C)cc1 (centres undefined)
→ -8	i	0.86	-4.1	50	100	102
- COCCCNc1ncnc2ccc(C)cc12
→ -4	i	1.1	-3.0	57	108	109
- COn1c(SCc2ccc(Cl)cc2)nc2ccccc2c1=O
→ -2	i	0.92	-0.3	-77	237	105
- CCOC(=O)c1cnc2cc(C)nn2c1-c1ccccc1
→ -5	i	0.9	-1.5	-3	91	80
- C=CCn1c(SCC(=O)NC2CCCCC2)nnc1-c1ccc(OC)cc1
→ -6	i	1	-1.5	-114	97	101
- CC1CCCC(C)N1S(=O)(=O)c1ccc(S(=O)(=O)NCc2ccccc2)cc1 (centres undefined)
→ -4	i	0.93	0.1	-10	81	22*
- Cc1ccc(NC(=O)CN2C(=O)NC3(CCc4ccccc43)C2=O)cc1 (centres undefined)
→ -2	i	0.97	.	.	.	95
- O=Cc1cn(CC(=O)Nc2ccc(F)cc2)c2ccccc12
→ 0	i	0.93	.	14	81	102
- CN(C)CCNc1ncnc2c1sc1nc(N3CCOCC3)c3c(c12)CC(C)(C)SC3
→ 4	i	0.56	-0.5	7	95	119
- COc1ccccc1NC(=O)CSCc1ccc([N+](=O)[O-])cc1
→ 4	i	1.2	.	35	125	86
- Fc1ccc(CSc2nncn2NCc2ccc3c(c2)OCO3)cc1
→ -6	.	.	-2.1	.	.	98
- CCN(CC)CCCN(Cc1cc2cc3c(cc2[nH]c1=O)OCO3)C(=O)Nc1ccccc1OC
→ -10	i	1	-0.8	.	.	133
- COc1ccccc1NC(=O)N1C2CCCC1CC(NC(=O)c1ccccc1)C2 (centres undefined)
→ -7	i	1	.	.	.	97
- CC(C)N(CCc1ccncc1)C(=O)Nc1ccc(F)cc1
→ -6	i	1	-1.3	.	.	103
- O=C(Nc1nc2c(s1)CCCC2)c1ccc2ncsc2c1
→ 1	.	.	-0.6	-43	87	75
- Cn1c(SCc2cc(=O)[nH]c3ccccc23)nnc1-c1ccco1
→ -1	i	0.91	-1.5	12	67	102
- COc1ccc(/C=N/n2cc(-c3ccc(OC)cc3)nc2N)cc1
→ -2	i	1.2	-3.0	8	90	97
- Cc1cccc(COCC(Cc2ccccc2)N2CCN(C(=O)c3ccc(C(F)(F)F)cc3)CCC2=O)c1 (centres undefined)
→ -14	i	0.77	-2.0	-55	74	38
- O=C(Nc1ccncc1)c1ccc(-c2ccccc2)cc1
→ 6	i	0.98	.	-38	117	102
- N#Cc1cc2c(nc1S(=O)(=O)Cc1ccccc1)CCCC2
→ -1	i	0.89	.	.	.	104
- CC1(C)CC2(CC(C)(C)NC(=O)N2)NC(=O)N1
→ -1	.	.	0.4	17	123	96
- COc1ccc([C@H]2Oc3cc(O)cc(O)c3C(=O)C2[C@@H]2C(=O)c3c(O)cc(O)cc3O[C@@H]2c2ccc(OC)cc2)cc1 (some centres undefined)
→ .	i	0.7	.	.	.	100
- Cc1ccc(S(=O)(=O)n2c3ccc(Cl)cc3c3nc(C)sc32)cc1
→ -2	i	0.86	-1.1	80*	154*	104
- COc1ccccc1OCC(=O)Nc1ccc2c(c1)n(C)c(=O)n2C
→ -10	i	1	.	-33	135	94
- [O-][n+]1c2c(nn1-c1ccc(Cl)c(Cl)c1)-c1nonc1CC2
→ -1	i	1.1	.	36	58	117
- CC(=O)Nc1cc(C(C)(C)C)c(O)c(C(C)(C)C)c1
→ -13	i	0.73	-0.1	14	122	107
- Cc1nn(C)c(=O)n1-c1ccc(Oc2ccccc2)cc1
→ -9	i	0.9	-0.6	.	.	102
- O=C(COC(=O)c1cccc(NS(=O)(=O)/C=C/c2ccccc2)c1)Nc1ccccc1OC(F)F
→ -12	i	0.89	-1.5	16	128	98
- CCOC(=O)c1cc(-c2ccccc2)sc1NC(=O)C(C)N1C(=O)NC(C)(c2ccc(Cl)cc2)C1=O (centres undefined)
→ -7	i	0.94	0.1	41	128	111
- COc1cccc(-c2nnc(SCc3ccc(C#N)cc3)n2Cc2ccco2)c1
→ -9	i	1.2	-2.2	-93	104	91
- C[C@H]1CC[C@@]2(O[C@@H](CCO)C[C@@H](O)[C@@H]2O)O1
→ 3	i	0.92	.	.	.	86
- CCN1CCN(C(=O)c2sc3ncnc(N4CCc5ccccc5C4)c3c2C)CC1
→ -9	.	.	.	-50	96	112
- O=c1[nH]c2cc3c(cc2cc1CN(Cc1nnnn1CC1CCCO1)C1CCCCC1)OCO3 (centres undefined)
→ -2	.	.	4.2	.	.	108
- COC(=O)C1=C(N)c2c(F)cccc2C1(C#N)c1ccccc1 (centres undefined)
→ 7	i	0.99	-2.1	-19	80	91
- COc1ccc(-c2cc(C(=O)N3CCN(c4ncccn4)CC3)c3ccccc3n2)c(OC)c1
→ -19	i	1	0.3	-12	82	100
- O=C(/C=C/c1ccccc1[N+](=O)[O-])NCc1ccccc1Cl
→ -4	i	1	.	.	.	102
- N#Cc1c(NC(=O)CCn2cnc3ccccc3c2=O)oc(-c2ccccc2)c1-c1ccccc1
→ -7	i	0.99	-1.5	75*	51*	113
- O=C(c1ccccc1[N+](=O)[O-])N1CCCN(C(=O)c2ccccc2[N+](=O)[O-])CC1
→ -5	i	0.99	-1.4	0	121	99
- O=C(NCc1ccco1)c1cnc2n(c1=O)CCS2
→ -1	i	1.1	-1.9	14	100	.
- O=C(NNc1ncnc2ccccc12)c1cccc(Cl)c1
→ .	i	0.95	.	.	.	99
- Cc1oc2ccc(OC(=O)N3CCOCC3)cc2c1C(=O)OC(C)C
→ -4	i	0.9	-1.3	-17	94	100
- Cc1cccc(OCCN2C(=O)C(=O)c3cccc(C)c32)c1
→ 2	i	1	-1.1	.	.	102
- CCOc1ccc(C(=O)NC2CCN(C(=S)NCc3ccco3)CC2)cc1
→ 8	i	1.1	-2.8	29	83	123
- O=C(NCCN1CCCOC1=O)C(=O)NCCN1CCCOC1=O
→ .	i	1.1	.	.	.	99
- COC(=O)CC1C(=O)NCCN1C(=O)CSc1nnc(Nc2ccc(OC)cc2)s1 (centres undefined)
→ -4	i	0.88	-0.8	45	84	92
- O=C(Nc1ccccc1)Nc1ccccc1NS(=O)(=O)c1cccs1
→ 13	i	0.87	-1.2	46	118	50
- CCCc1cc(C(=O)Nc2ccn(Cc3ccc(C)cc3)n2)no1
→ .	i	1.1	.	.	.	105
- CC1(C)Cc2c(c(N3CCOCC3)nc3sc4c(NCc5ccco5)nnnc4c23)CS1
→ -1	i	0.96	-0.6	50	145	93
- COc1ccc(-c2nnn(CC(=O)N(CCN3CCOCC3)C(C(=O)NC3CCCC3)c3ccco3)n2)cc1 (centres undefined)
→ 3	i	1.1	.	.	.	98
- Cc1c(Cl)c([N+](=O)[O-])nn1CC(=O)N1CCCC1
→ -6	i	1	-1.6	-7	111	110
- CSc1ccccc1NC(=O)c1ccccc1
→ -4	.	.	.	-14	43	106
- CCC1SC2=NC(C)=C(C(=O)OC)C(c3ccc(C)cc3)N2C1=O (centres undefined)
→ -8	i	0.96	-1.1	-16	128	102
- Cn1c(=O)c2c(-c3ccccc3)n3c4ccccc4ncc3c2n(C)c1=O
→ -5	i	1	-4.0	7	108	.
- O=C(NC(=S)Nc1ccc(S(=O)(=O)Nc2nccs2)cc1)c1ccc(F)c(F)c1
→ -1	.	.	0.0	.	.	98
- Cc1cc(C)nc(NC(=O)c2ccc(Cl)cc2)n1
→ -1	i	0.9	.	14	124	101
- O=C(COC(=O)/C=C/c1ccccc1)Nc1cccc(Oc2ccccc2)c1
→ -8	i	1	-0.9	-40	28	104
- Cc1ccc(N(CC(=O)NCCSCc2ccco2)S(=O)(=O)c2ccc(F)cc2)cc1
→ -1	i	0.98	.	.	.	102
- COc1ccc(NC(=O)COC(=O)c2ccc(F)cc2F)cc1
→ -5	i	1	.	-36	96	117
- COc1ccc(OCC(=O)N/N=C(\C)CC(=O)Nc2cccc([N+](=O)[O-])c2)cc1
→ -3	i	0.91	.	53	93	100
- COc1ccc(N2CCN(C(=O)C3=NNC(=O)CC3)CC2)cc1
→ -1	i	1	0.1	21	146	104
- CC1(C)Cc2nc3sc4c(N(CCO)CCO)ncnc4c3cc2CO1
→ 4	i	1	-1.7	48	99	96

Grouped by structure, those above containing bromine.
Order of values – PKD1 inh	HSV replic up	HSV replic up primary fold	GALR2 agonist	Insulin prom inh	Insulin prom inh cell count	RGS16-Gao
- Cn1c(=O)[nH]c(=O)c2c1nc(Br)n2C/C=N/NC(=O)c1ccccc1
→ .	i	0.96	.	.	.	101
- CN1CCN(CC(O)COCCOc2ccc(Br)cc2)CC1 (centres undefined)
→ -9	i	0.93	0.3	5	114	105
